Source: PubChem
MARV entry inh – inhibitors of Marburg virus binding or cell entry. 300,000 tested, 1.8% active. Marburg virus pseudotyped entry inhibition, cell reporter; control for the full effect not named in the record; about a third of the inactives were read at about 46 µM. Potency, µM (series often up to 37.8 µM), for inactives: at the highest dose activity change, negative = inhibition, most hits filed as inhibitors; active = well fitted inhibition curve with a large enough effect; inconclusive = small, poorly fitted or top-dose-only effect, or effect the other way; inactive = flat fitted curve, though single readings scatter; tested in HEK293 cells; about a fifth of its hits are not listed in these tables; also: % is scaled to controls: 0 for no effect and ±100 for the full control effect; luciferase read-out
Cruzain noTriton – cruzain (T. cruzi) inhibition without detergent; P25779; purified cruzain, Z-FR-AMC fluorescence, no detergent; 200,000 tested, 2.3% active; Potency, µM, inactives show max response, negative = inhibition, actives largely listed as inhibitors;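 also: plate controls were enzyme without inhibitor for no effect and buffer without enzyme for full effect; nearly all actives have a fitted effect of over 40% in size; top concentration of the series not given in the record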
Target sequence (P25779 123-467 limits assumed): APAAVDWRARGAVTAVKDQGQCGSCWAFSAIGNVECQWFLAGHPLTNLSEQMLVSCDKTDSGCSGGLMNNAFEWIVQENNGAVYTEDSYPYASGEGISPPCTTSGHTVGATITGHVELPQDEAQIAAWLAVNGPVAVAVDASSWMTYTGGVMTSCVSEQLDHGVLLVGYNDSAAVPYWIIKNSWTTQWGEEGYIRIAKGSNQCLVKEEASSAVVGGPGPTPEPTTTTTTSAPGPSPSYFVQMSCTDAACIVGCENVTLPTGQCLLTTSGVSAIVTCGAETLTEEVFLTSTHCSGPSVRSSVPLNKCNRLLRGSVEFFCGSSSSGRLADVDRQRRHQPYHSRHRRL
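Purified cruzain at 1.5 nM, pre-incubated 15 min with compound at room temperature in 100 mM sodium acetate pH 5.5, 5 mM DTT, 0.00005% Triton X-100. Reaction started with 2 uM Z-FR-AMC; AMC fluorescence increase over 60 s gives rate.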
NS1 function inh – influenza NS1 inhibition | S. cerevisiae slowed by influenza A NS1, growth recovery by OD600 | 270,000 tested, 0.4% active | AID 2326 | Potency, µM (top dose mostly 46.1 µM), inactives show at the top dose activity, positive = more growth; active means well fitted rising curve with a large enough effect; inconclusive means small, poorly fitted or top-dose-only effect; inactive means no such curve, though single readings can be large or run the other way; also: nearly all actives have a fitted effect of over 50% in size
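Compounds were scored for reversing the slow growth caused by influenza A NS1 in S. cerevisiae, measured by optical density at 600 nm. Assay medium contained 2% galactose at pH 6.0; NS1-free yeast of the same strain were the positive control.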
SARS PLP yeast – blocks SARS-CoV papain-like protease in a yeast assay. S. cerevisiae expressing SARS-CoV PLpro, growth rescue; control for the full effect not named in the record. Potency, µM (highest dose often 32.9 µM), for inactives: at the top dose activity, positive = growth rescue. 330,000 tested, 0.19% active. AID 485353; active means well fitted rising curve with a large enough effect; inconclusive means small, poorly fitted or top-dose-only effect; inactive means no such curve, though single readings can be large or run the other way; also: 0% is about no effect; nearly all actives have a fitted effect of over 55% in size; growth read by luminescence after 48 h
StopGo reporter – FMDV 2A StopGo reporter, luciferase signal; 410,000 tested, 1.2% active; human cells with a luciferase reporter of 2A StopGo recoding; control for the full effect not named in the record; AID 1159524; Potency, µM (highest dose often 57.9 µM), for the others: at the highest dose signal change, negative = less light; active = well fitted falling curve with a large enough effect; inconclusive = small, poorly fitted or top-dose-only effect; inactive = no such curve, though single readings can be large or run the other way; tested in HEK293T cells; also: % is scaled to controls: 0 for no effect and ±100 for the full control effect; nearly all actives have a fitted effect of over 45% in size; luciferase light after 4 h
Cruzain inh Det – cruzain (T. cruzi) inhibition with detergent | 200,000 tested, 0.43% active | purified cruzain, Z-FR-AMC fluorescence, 0.01% Triton | P25779 | Potency, µM, for inactives: max response, negative = inhibition, usual class: inhibitors;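 also: plate controls were neutral wells for no effect and buffer without enzyme for full effect; nearly all actives have a fitted effect of over 40% in size; top concentration of the series not given in the record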
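Purified cruzain (1.5 nM final) was preincubated with compounds for 15 min at room temperature in 100 mM sodium acetate pH 5.5, 5 mM DTT, 0.01% Triton X-100. Reaction started with 2 uM Z-FR-AMC; AMC fluorescence change over 60 s gave activity.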
Lassa entry inh – blocks Lassa virus binding to or entry into cells | Lassa virus pseudotype entry inhibition, cell reporter; control for the full effect not named in the record | Potency, µM (top dose mostly 37.9 µM), for inactives: at the top dose activity change, negative = inhibition, most hits filed as inhibitors | 300,000 tested, 1.2% active | AID 540256; active means well fitted inhibition curve with a large enough effect; inconclusive means small, poorly fitted or top-dose-only effect, or effect the other way; inactive means flat fitted curve, though single readings scatter; tested in HEK293 cells; also: % is scaled to controls: 0 for no effect and ±100 for the full control effect; nearly all actives have a fitted effect of over 50% in size; luciferase read-out
RE007 growth inh – less growth of the S. pombe RE007 Vpr strain | 360,000 tested, 0.21% active | Potency, µM (doses to about 92.2 µM), inactives show top-dose activity change, negative = less growth | AID 651644 | S. pombe RE007 Vpr strain, BacTiter-Glo ATP luminescence, 24 h; control for the full effect not named in the record; active = well fitted falling curve with a large enough effect; inconclusive = small, poorly fitted or top-dose-only effect; inactive = no such curve, though single readings can be large or run the other way;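 also: % is scaled to controls: 0 for no effect and ±100 for the full control effect; nearly all actives have a fitted effect of over 50% in size; the assay follows cell death caused by Vpr and the record does not say whether a fall means rescue or toxicity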
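Fission yeast strain RE007, carrying one chromosomally integrated HIV-1 vpr copy, was seeded at OD 0.01 in PMG+AL medium with 23 nL pinned compound. After 24 h at 30 °C and 99% humidity, viability was read by BacTiter-Glo luminescence.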
An asterisk follows results filed as active; ? = inconclusive; / = not tested or not shown; & = joins results of further samples; [ ] = remark or other dose. Unless noted, calls follow the shape of the dose curve; as a rule, active = well fitted curve in the direction sought with a large enough effect; inconclusive = small, poorly fitted or top-dose-only effect, or another doubt; inactive = no such curve, though single readings can be large; an effect the other way counts as inactive or inconclusive. Potency is read from the fitted curve at half-maximal effect. Rows were taken by chance. About 4.6% of those tested had a hit in this group.

SMILES	MARV entry inh	Cruzain noTriton	NS1 function inh	SARS PLP yeast	StopGo reporter	Cruzain inh Det	Lassa entry inh	RE007 growth inh
CCOc1ccc(-c2nnc3sc(-c4ccccc4OC)nn23)cc1	2%&2%&2%	/	/	/	0%	/	?	-5%
COc1ccc(NC(=O)Nc2ccc(OC)c(OC)c2)c([N+](=O)[O-])c1	-6%	-11%	4%	-3%	-9%	2.6%	17%	0%
CC1CCCCN1S(=O)(=O)c1ccccc1[N+](=O)[O-] (stereo not given)	-4%	7%	-2%	-5%	-7%	-0.6%	-7%	0%
CCOC(=O)/C(C#N)=C/Nc1cc(F)ccc1C	/	/	0%	0%	2%	/	/	-17%
Cc1cc(OCC(=O)NCc2cccnc2)c2c3c(c(=O)oc2c1)CCCC3	/	/	-23%	-3%	-8%	/	/	-5%
O=C(O)c1ccc(/C=C2\SC(=S)N(NC(=O)c3ccccc3)C2=O)cc1	/	/	1%	-2%	1%	/	/	-6%
Cc1cc(C)n(CC(=O)n2c3ccccc3c3ccccc32)n1	2%	12%	29%	0%	-18%	-0.2%	6%	-7%
CS(=O)(=O)Nc1cccc(C2=NN(S(=O)(=O)c3ccccc3)C(c3cccs3)C2)c1 (stereo not given)	?	3%	14%	-2%	10%	-0.2%	12%	7%
CCCCNC(=O)c1ccc(CS(=O)(=O)c2ccc(OC)cc2)o1	/	-3%	-5%	5%	-26%	-0.9%	/	-5%
CC1CCCCN1c1nc2nonc2nc1N1CCCCC1C (stereo not given)	-17%	-13%	-9%	-9%	-10%	-5.3%	3%	16%
COC(=O)c1cc(=O)n(C2CC2)c(=NC2CC2)s1	11%	-3%	-3%	1%	?	1.0%	-3%	6%
Cc1ccc(N2CC(C(=O)OCc3nnc(-c4ccccc4)o3)CC2=O)cc1 (stereo not given)	3%	/	/	-7%	30%[activator]	/	?	2%
O=C(CCc1nc2ccccc2[nH]1)Nc1ccccc1	?	-3%	-7%	-1%	2%	4.0%	20%	-7%
COc1ccc(CCN=C(N)NS(=O)(=O)c2ccc(C)cc2)cc1	?	0%	0%	18%	0%	-0.8%	?	5%
COC(=O)[C@@]1(Cc2ccc(OC)cc2)[C@H]2c3cc(C(=O)N4CCCC4)n(Cc4ccc(OC(F)(F)F)cc4)c3C[C@H]2CN1C(=O)c1ccccc1	/	?	/	/	-17%	-5.4%	/	7%
O=C(O)CCC(=O)Nc1ccc(OCC(=O)O)cc1	2%	4%	?	5%	5%	0.9%	2%	0%
CCCCSc1nnc([C@@H]2CCCN2C(=O)OC(C)(C)C)o1	-13%	9%	1%	6%	2%	3.2%	5%	6%
O=C1c2ccccc2NC2CCCCC12 (stereo not given)	5%	-7%	-112%	-41%	/	-5.2%	2%	12%
Cc1ccc(C(=O)CC2(O)C(=O)Nc3ccccc32)s1 (stereo not given)	24%	-10%	-7%	13%	-6%	0.7%	?	-12%[3.69 µM]
O=C(Cn1c(-c2ccccc2)noc1=O)Nc1ccc(N2CCCCCC2)cc1	?	?	-43%	-9%	-8%	-1.0%	-11%	-6%
Cc1cccn2c(=O)c(C(=O)NCc3cccc(F)c3)cnc12	/	0%	/	/	8%	-1.2%	12%[46.1 µM]	/
CCOC(=O)c1c(C)[nH]c(C(=O)NCCc2ccc(OC)c(OC)c2)c1C	?	/	6%	12%	-20%	/	?	-6%
C=CCOc1ccc(C(=O)CC)cc1OC	5%[46.1 µM]	5%	-2%	-5%	4%	-3.9%	?	-20%
COc1ccc2cc(CCNC(=O)c3ccc(Br)o3)c(=O)[nH]c2c1	/	-12%	-39%	-4%	-17%	-8.2%	/	1%
Cc1cc(NC(=O)c2cccc(S(=O)(=O)N3CCOCC3)c2)c2ccccc2n1	?	11%	-7%	0%	?	-4.1%	-21%	8%
Following part.
SMILES	MARV entry inh	Cruzain noTriton	NS1 function inh	SARS PLP yeast	StopGo reporter	Cruzain inh Det	Lassa entry inh	RE007 growth inh
COc1ccc(-c2cc3ccccc3oc2=O)cc1NC(=O)c1cccnc1	?	?	-6%	-6%	19%	-7.5%	-17%	-6%
CC(=O)Nc1ccc(C(=O)NC(C)c2ccc(-n3ccnc3)cc2)cc1 (stereo not given)	18%	/	9%	2%	2%	/	15%	-16%
CC(=O)N1CCc2cc(S(=O)(=O)CCC(=O)N3CCN(c4cc(C)ccc4C)CC3)ccc21	8%[46.1 µM]	/	-3%	3%	?	/	0%[46.1 µM]	-4%
COc1ccc(OC)c(N(CC(=O)NC2CCCCCC2)S(=O)(=O)c2ccc(C)cc2)c1	2%	/	10%	-2%	12%	/	-14%	1%
O=S(=O)(Cc1ccccc1)NCCc1cccc(Cl)c1	3%[46.1 µM]	/	-16%	-3%	24%	/	-6%[46.1 µM]	-1%
CCn1nnc(NC(=O)c2cc3ccccc3o2)n1	?	6%	-2%	-9%	54%[activator]	2.0%	39%[14.3 µM]	-10%
CCc1cc(=O)oc2c(C)c(OC(C)C(=O)NCC3CCC(C(=O)O)CC3)ccc12 (stereo not given)	/	/	5%	-7%	-19%	/	/	-10%
COC(=O)C(NC(=O)CC(C)C)(Nc1nc2c(s1)CCCC2)C(F)(F)F (stereo not given)	?	-3%	/	/	10%	0.2%	19%[46.1 µM]	/
COc1cc(C2NC(=O)NC(C)=C2C(=O)OC(C)(C)C)ccc1OCC(=O)O (stereo not given)	-12%	-2%	5%	/	-6%	9.8%	5%	3%
O=C(O)c1ccc(C=NN2CCCCCC2)cc1	?	/	/	/	-8%	/	-23%	4%
CCc1cccc2c(-c3ccccc3)nc(SCC(=O)Nc3ccc(OC)cc3)nc12	-16%[46.1 µM]	-15%	/	/	-4%	-0.2%	9%[46.1 µM]	/
COC(=O)c1ccc(OC(=O)c2ccco2)cc1	4%	7%	-37%	5%	-8%	4.9%	4%	3%
COc1ccc(N(CC(=O)NC2CCCC2)C(=O)c2csnn2)cc1	2%	-16%	-3%	-18%	-1%	-0.8%	-6%	-18%
Cc1ccc2onc(CC(=O)Nc3cccc(C(F)(F)F)c3)c2c1	/	21%	/	/	-16%	-5.2%	-19%[46.1 µM]	/
COc1cc(CNCCSc2nnnn2C)ccc1OCc1ccc(C)cc1	24%[46.1 µM]	1%	/	/	4%	0.5%	?	/
Cc1ccc(NC(=S)NCc2ccc3[nH]c4c(c3c2)CCCC4)cc1	/	32µM*	22%	-15%	-22%	-12%	/	5%
O=C1/C(=C/c2cccnc2)SC(=S)N1CC1CCCO1 (stereo not given)	-12%[46.1 µM]	/	/	-1%	11%	/	/	6%
CC(C)Cn1c(=O)c2ccccc2n2c(CCC(=O)NC(C)c3ccccc3)nnc12 (stereo not given)	-8%[46.1 µM]	-1%	/	/	-9%	0.1%	/	/
CN1CCCN(C(=O)c2cc(-c3ccc(Cl)c(Cl)c3Cl)nc3ccccc23)CC1	11%	/	-1%	-5%	-7%	/	15%	1%
O=C(c1cccs1)N1CCN(c2nc3ccccc3s2)CC1	/	/	-1%	-2%	?	/	/	8%
COC(=O)c1ccc(NC(=O)c2cc(Cl)ccc2OC)cc1	?	/	/	0%	-6%	/	11%[46.1 µM]	14%
CCc1cccc(NC(=O)CCNC(=O)Cn2ccc3ccccc3c2=O)c1	13%[46.1 µM]	/	23%	1%	-6%	/	6%[46.1 µM]	-8%
Cc1csc2nc(-c3cccc(NC(=O)c4c(F)cccc4F)c3)cn12	/	?	/	/	-10%	-1.1%	3%[46.1 µM]	/
COc1ccccc1OCCn1c(C(C)O)nc2ccccc21 (stereo not given)	28%	10%	-8%	-1%	-24%	4.6%	3%	-14%
Clc1ccc(CSc2nnc(-c3ccncc3)o2)cc1	3%	0%	-75%	-5%	-23%	0.9%	-1%	-3%[3.69 µM]
Other entries follow.
SMILES	MARV entry inh	Cruzain noTriton	NS1 function inh	SARS PLP yeast	StopGo reporter	Cruzain inh Det	Lassa entry inh	RE007 growth inh
CCC(=O)Nc1ccc2nc(SCCOc3ccc(C)cc3)sc2c1	-6%[46.1 µM]	-6%	/	/	4%	-1.6%	-15%[46.1 µM]	/
COc1ccc(Cn2c(=O)n(-c3ccc(C)cc3)c(=O)c3c2c2cc(C)ccc2n3C)cc1	/	12%	/	/	-14%	1.0%	?	/
CC(Cc1ccco1)NC(=O)c1ccc(C(F)(F)F)cc1 (stereo not given)	?	/	2%	-1%	20%	/	?	-11%
CCc1nnc(NC(=O)c2cc(=O)c3cc(C)c(C)cc3o2)s1	-3%[46.1 µM]	-14%	/	/	-16%	-2.4%	-15%[46.1 µM]	/
CC(C)c1onc(C(=O)N2CCC(C(N)=O)CC2)c1[N+](=O)[O-]	/	/	-4%	2%	-14%	/	/	-4%
O=S1(=O)C=C(SCc2ccccc2)Nc2ccccc21	?	-4%	-12%	-11%	-12%	5.0%	-6%	-4%
CC1CCN(c2ccc3nnc(CCC(=O)Nc4ccc(F)c(F)c4)n3n2)CC1	/	/	10%	0%	-11%	/	/	12%
CCOc1ccc(NC(=O)NCc2cccnc2)cc1	21%	/	-1%	1%	-5%	/	-12%	-7%
CCC(=O)N1CCN(c2ccc(Cl)cc2NC(=S)NC(=O)c2ccco2)CC1	2%	/	/	/	?	/	0%	-21%
COc1ccc(C2SCC(=O)N2c2ccccc2)cc1 (stereo not given)	/	/	0%	-4%	-23%	/	/	16%
COc1ccc(-n2ncc3c2CC(C)(C)CC3NC(=O)Cc2nonc2C)cc1 (stereo not given)	/	/	1%	4%	-14%	/	/	1%
Cc1cc(NS(=O)(=O)c2ccc(Nc3nc(-c4ccc(O)cc4)cs3)cc2)no1	-26%	-24%	?	-1%	-11%	-14%	-11%	15%
COc1ccc(NC(=O)Nc2c(C)noc2-c2ccccc2)cc1	/	/	-4%	0%	-13%	/	/	-5%
CC1CCCN(c2ncnc3c2cnn3-c2ccccc2)C1 (stereo not given)	/	/	-38%	-3%	-11%	/	/	-23%
CCc1ccc(NC(=O)CN2C(=O)c3cccc4cccc2c34)cc1	-1%[46.1 µM]	1%	/	/	-4%	-1.6%	0%[46.1 µM]	/
Cc1nc(NC(=S)NC(=O)COc2ccccc2Cl)ccc1Br	7%	?	4%	-11%	-18%	0.3%	4%	-1%
